# Sfp inh: inhibitors of Bacillus subtilis Sfp phosphopantetheinyl transferase | AID 1490 | Biochemical Sfp PPTase activity, qHTS | 310,000 compounds, 3.5% hits | Potency, µM, for inactives: max response, negative = inhibition, usual class: inhibitors; active = well fitted inhibition curve with a large enough effect; inconclusive = small, poorly fitted or top-dose-only effect, or another doubt; inactive = no such curve, though single readings can be large or run the other way;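 also: the enzyme is Sfp with the accession as filed and its product quenches rhodamine fluorescence; potency is read from the fitted curve at half-maximal effect; 0% = enzyme reaction without inhibitor and -100% = no enzyme wells; top concentration of the series not given in the record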
#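 Buffer: 50 mM Hepes-Na pH 7.6, 10 mM MgCl2, 0.01% Nonidet P-40, 0.01% BSA. Enzyme 15 nM, pre-exposed to compound 15 min; substrates then added and fluorescence change tracked over 30 min.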
# PINK1 modulator: modulators of PINK1 expression | PINK1 immunofluorescence, high-content cytometry, 24 h | Potency, µM (doses to about 76.6 µM), inactives show at the top dose activation (PINK1 increase), usual class: activators | 410,000 compounds, 0.2% hits; active = well fitted activation curve with a large enough effect; inconclusive = small, poorly fitted or top-dose-only effect; inactive = flat fitted curve, though single readings scatter; cell line not stated here;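 also: potency is read from the fitted curve at half-maximal effect; % of control where 0% means no effect; nearly all actives have a fitted effect of over 65% in size; a mitochondrial uncoupler was the plate control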
#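 Compound titrations (5 concentrations, 24 h) on a stable cell line; DMSO and CCCP controls. Endpoint: fixed-cell PINK1 immunofluorescence with mitochondrial, cell and nuclear markers, scanned by microplate cytometer.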
# D2 ag: activates the human D2 dopamine receptor | 360,000 compounds, 0.084% hits | DiscoveRx PathHunter D2 beta-arrestin, luminescence, 90 min; 100% = 57 uM dopamine signal | activation, % (test concentration not listed); in the data active = activation above about 40%; inconclusive = about 15% to 40%; inactive = below about 15%; also: compound concentration not given in the record; the text of the record calls up to 30% inactive
#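 DiscoveRx PathHunter D2 beta-arrestin cells (2,100/well) attached overnight, then compound-stimulated 90 min at 37 C in HBSS/10 mM HEPES/0.1% Tween-20 buffer; beta-galactosidase complementation read by luminescence after 1 h at ambient temperature. Dopamine 57 uM final (EC100) as control.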
# TRPV1 PAM: human TRPV1 potentiation | Q8NER1 | TRPV1-expressing cells, Fluo-8 calcium influx, capsaicin EC20 potentiation; host cell line not named in the record; control for the full effect not named in the record | potentiation, % at 8.33 µM | 320,000 compounds, 0.02% hits; active means potentiation above 80%; inconclusive means 30% to 80%; inactive means below 30%; also: 0% is about no effect
# Target sequence (Q8NER1 whole entry, looked up): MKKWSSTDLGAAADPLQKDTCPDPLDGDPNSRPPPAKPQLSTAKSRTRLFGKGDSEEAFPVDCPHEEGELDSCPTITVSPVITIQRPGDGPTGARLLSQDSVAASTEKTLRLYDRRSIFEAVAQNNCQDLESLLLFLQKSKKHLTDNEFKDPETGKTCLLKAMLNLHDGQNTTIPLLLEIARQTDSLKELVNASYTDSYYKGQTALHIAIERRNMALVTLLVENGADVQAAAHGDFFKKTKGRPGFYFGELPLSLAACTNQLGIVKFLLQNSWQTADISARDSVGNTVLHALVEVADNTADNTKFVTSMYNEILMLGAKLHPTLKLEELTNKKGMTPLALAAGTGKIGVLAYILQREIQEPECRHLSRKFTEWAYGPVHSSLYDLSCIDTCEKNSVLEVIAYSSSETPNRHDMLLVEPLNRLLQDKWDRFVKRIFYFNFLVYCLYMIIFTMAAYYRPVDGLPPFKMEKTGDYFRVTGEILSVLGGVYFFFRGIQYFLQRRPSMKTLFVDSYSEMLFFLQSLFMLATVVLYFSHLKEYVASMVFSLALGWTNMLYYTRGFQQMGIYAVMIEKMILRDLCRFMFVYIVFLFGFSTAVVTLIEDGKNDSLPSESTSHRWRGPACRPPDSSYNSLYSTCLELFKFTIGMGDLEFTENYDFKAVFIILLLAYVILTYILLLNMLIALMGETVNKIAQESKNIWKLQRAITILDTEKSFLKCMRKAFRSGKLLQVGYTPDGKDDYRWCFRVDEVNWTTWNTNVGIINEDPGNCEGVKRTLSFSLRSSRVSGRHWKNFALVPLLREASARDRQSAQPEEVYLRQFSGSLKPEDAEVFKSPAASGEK
#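 TRPV1-expressing cells were cultured overnight at 35.5C and loaded with Fluo-8 calcium dye for 40 to 90 min at room temperature. After a 10 s baseline, compound was added and calcium influx was read kinetically for 3 min (ex 480/em 520 nm).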
# CtBP-E1A inh: CtBP/E1A binding inhibition; AlphaScreen GST-E1A/His-CtBP binding, 1536-well; active compounds read low; control for the full effect not named in the record; activity change, % (test concentration not listed); 340,000 compounds, 0.49% hits; AID 651724; in the data active means activity change below about -65%; inconclusive means about -30% to -65%; inactive means above about -30%; also: % is scaled to controls: 0 for no effect and ±100 for the full control effect
#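 Homogeneous bead-based format: GST-tagged E1A captured on glutathione donor beads, His-tagged CtBP on nickel acceptor beads; compounds precede bead addition by 2 h at 37 °C.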
# D2 potentiator: positive allosteric modulators of human D2 dopamine receptor; P14416; AID 624464; 360,000 compounds, 0.23% hits; potentiation, % (test concentration not listed); DiscoveRx D2 beta-arrestin cells, luminescence, 90 min; 100% = 57 uM dopamine signal; active = potentiation of 50% or more; inconclusive = 30% to 50%; inactive = 30% or less;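 also: compound concentration not given in the record; tested on top of an EC20 dose of dopamine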
#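 D2 cells co-treated with compound plus 50 nM dopamine (EC20) for 90 min at 37 deg C to detect potentiation. Beta-arrestin recruitment was read as enzyme-fragment luminescence after 1 h at ambient temperature. Full response was set by 57 uM dopamine.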
# Six1-Eya2 blk: Six1/Eya2 interaction inhibition | Q15475+O00167 | AlphaScreen GST-Six1/His-Eya2 binding, biochemical; active compounds read low; control for the full effect not named in the record | activity change, % (concentration not given with the values) | 360,000 compounds, 0.56% hits; in the data active = activity change below about -65%; inconclusive = about -30% to -65%; inactive = above about -30%; also: % is scaled to controls: 0 for no effect and ±100 for the full control effect
#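 Compounds are tested against tagged Six1 and Eya2 proteins bridged by glutathione donor and nickel acceptor beads; after a one-hour incubation at 37 °C without light, AlphaScreen emission is recorded.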
# * marks the source's active call; other numbers are inactive results; u = inconclusive; x = no result given; [ ] = dose if it differs, or a comment.
SMILES,Sfp inh,PINK1 modulator,D2 ag,TRPV1 PAM,CtBP-E1A inh,D2 potentiator,Six1-Eya2 blk
Cc1csc(NC(=O)CSc2nc3ccccc3s2)n1,-4%,-0.1%,-0.9,11,-1,-10,-4
Cc1ccc(NC(=S)NCc2ccccc2)c(C)c1,14%,0.7%,-6.4,-20,-1,-21,-12
O=C(NCc1ccccc1)/C(=C\c1ccccc1)NC(=O)c1ccco1,8%,1.8%,-0.1,5,2,-11,1
COc1cccc(CNS(=O)(=O)c2ccc(S(=O)(=O)NC3CC3)cc2)c1,11%,1.0%,-0.1,3,-10,-3,-5
Cc1ccc(Nc2nc(N)c([N+](=O)[O-])c(NCCO)n2)cc1C,-3%,-3.0%,-4.2,8,-23,-5,-20
CCN(CC)C(=O)C1=C(C)N(Cc2ccc(OC)cc2)C(=O)C(CC(=O)NCc2cccs2)C1 (stereo unspecified),x,0.8%,-9.4,x,0,-2,1
N#CCCNS(=O)(=O)c1ccc(C(=O)OCCCOC(=O)c2ccc(S(=O)(=O)NCCC#N)cc2)cc1,21%,-1.2%,-1.8,u,6,-33,6
COC(=O)[C@@]12CCCCN1[C@H](c1ccc(-c3ccc(OC)cc3)cc1)[C@@H]1C(=O)N(C)C(=O)[C@@H]12,x,-0.2%,0.9,11,0,-1,1
Cc1ccc(N2CCN(CC(O)COc3ccccc3)CC2)cc1 (stereo unspecified),0%,2.6%,3.6,4,-14,-23,-6
CC(=O)NC(Cc1ccc(F)c(F)c1)C(=O)NC1CCN(S(=O)(=O)c2ccc(C)cc2)CC1 (stereo unspecified),20%,-0.4%,-4.4,-6,12,0,4
CCOC(=O)C(=O)Nc1ccccc1C(=O)OC,13%,-2.4%,4.3,-11,x,-5,3
COc1ccc(CN(CC(=O)NC2CCCC2)C(=O)c2onc(C(N)=O)c2N)cc1,16%,x,-1.1,-13,9,4,1
COc1ccc(N2CCN(C(=O)C3CCC(Cn4c(=S)[nH]c5ccccc5c4=O)CC3)CC2)cc1 (stereo unspecified),8%,-3.5%[38.3 µM],0.0,6,-7,-12,-6
O=C(C1CCCC1)N1CCC(CO)(Cc2ccccc2Cl)CC1,8%,-0.1%,-2.9,-11,9,-8,-3
Cc1nc([N+](=O)[O-])cn1CC(O)c1ccccc1 (stereo unspecified),23%,-1.4%,2.6,6,9,-4,-1
O=C(CCCCCn1c(=S)[nH]c2cc3c(cc2c1=O)OCO3)NCCc1ccccc1,16%,1.7%,3.0,-3,x,-7,3
Cn1c(=O)n(CC(=O)O)c(=O)c2c1nc1n2CCCN1CCc1ccccc1,18%,0.8%,4.2,-6,x,13,-2
CCCN(CC(=O)Nc1ccccc1OC)C(=O)Cn1c(=O)oc2ccccc21,x,0.6%,-0.2,x,5,-1,-1
CC(=N)c1c(O)cc(C)oc1=O,x,-2.7%,-5.6,x,6,-2,8
COCCNC(=S)N/N=C/c1c(C)[nH]c2ccccc12,2%,-0.6%,-1.0,-4,-21,-6,-15
CC1(C(=O)NS(=O)(=O)c2ccccc2Cl)CCN1C(=O)Cc1ccccc1Cl (stereo unspecified),x,0.7%,-2.5,x,3,-6,4
CCc1ccc(S(=O)(=O)N/N=C\c2ccc([N+](=O)[O-])o2)cc1,56µM*,-0.6%,-2.3,10,-6,-7,-3
O=C(CCNC(=O)c1ccccc1)OCC(=O)c1cccc(Cl)c1,2%,2.4%,-4.3,-9,-2,-3,7
CC(=O)c1sc(-c2ccccc2)nc1C,-8%,-1.3%,5.1,-3,x,-1,26
CCCCc1cc(=O)oc2cc(OCC(=O)N(CC)CC)ccc12,3%,24%[38.3 µM],-1.5,1,3,14,4

# Compound profiles, as listed above. Order of screens: Sfp inh | PINK1 modulator | D2 ag | TRPV1 PAM | CtBP-E1A inh | D2 potentiator | Six1-Eya2 blk
# COCCNC(=S)N/N=C/c1c(C)[nH]c2ccccc12 is listed with 2% | -0.6% | -1.0 | -4 | -21 | -6 | -15
# N#CCCNS(=O)(=O)c1ccc(C(=O)OCCCOC(=O)c2ccc(S(=O)(=O)NCCC#N)cc2)cc1 is listed with 21% | -1.2% | -1.8 | u | 6 | -33 | 6

# More results:
SMILES,Sfp inh,PINK1 modulator,D2 ag,TRPV1 PAM,CtBP-E1A inh,D2 potentiator,Six1-Eya2 blk
COc1ccc(CNC(=O)c2sc3nc4c(c(C(F)(F)F)c3c2N)CCC4)cc1OC,-15%,-0.7%,-3.6,-12,0,-8,5
O=[N+]([O-])c1ccc(-n2nnnc2-c2ccccc2)c([N+](=O)[O-])c1,10%,-0.6%,u,7,-13,86*,-22
C#CCNC(=O)C1=C[C@@H](C2CC2)[C@H](CCCO)[C@@H](OCC)O1,6%,-0.8%,1.4,u,5,-2,3
C[C@@H]1CN([C@H](C)CO)C(=O)c2cc(Br)cnc2O[C@@H]1CN(C)Cc1cncnc1,x,2.8%,-8.4,x,-17,1,1
Cc1ccc(Cl)c(OCCCCN(C)Cc2ccccc2)c1,-12%,u,-4.2,1,8,-27,3
CCOc1cc(/C=C(/NC(C)=O)C(=O)O)cc(Cl)c1OCc1ccc(Br)cc1,4%,1.4%,-3.3,12,0,16,0
O=C(CCCC(=O)NCC1CCCO1)NCC1CCCO1 (stereo unspecified),5%,4.0%,0.1,7,4,14,6
O=C(c1cc(COc2ccc(F)c(F)c2)on1)N1CCOCC1,10%,0.6%,2.2,3,-6,-4,8
COC(=O)c1cc(OC)c(OC)cc1NC(=O)CSc1nnc(-c2cccnc2)n1C,3%,0.3%[38.3 µM],0.5,12,-16,0,-14
O=c1c2ccccc2nnn1CCc1ccccc1,x,1.6%,-2.5,x,3,-1,-4
COc1ccc(NS(=O)(=O)c2cccc3nsnc23)cc1Cl,13%,3.3%,-2.3,1,0,-1,-1
COc1ccc(C2Nc3ccccc3C(=O)N2Cc2ccccc2)cc1CSc1ccccn1 (stereo unspecified),13%,0.5%,-4.5,15,-2,-10,-3
CCOc1ccc(NC(=O)c2cccc(NC(=O)c3ccccc3)c2)cc1,14%,8.8%,-1.6,-9,-3,-3,-15
CC(=O)c1c(C)[nH]c(C(=O)OCc2nnc(-c3ccc([N+](=O)[O-])cc3)o2)c1C,x,5.5%,1.7,x,-4,25,16
CCC(=O)N1CCCc2cc(S(=O)(=O)N3CCN(c4ncccn4)CC3)ccc21,0%,-0.9%,10,8,-19,-5,9
COc1cccc(CN2CCCCC2C(=O)O)c1 (stereo unspecified),16%,-0.1%,-4.1,3,6,1,8
CC1CN(C(=O)c2cc(COc3c(F)cccc3F)on2)CCN1C (stereo unspecified),x,1.4%,1.3,x,-5,-2,4
CCN(c1ccc(F)cc1)S(=O)(=O)c1cccc2nsnc12,5%,-3.0%,-1.3,12,-3,-2,-4
O=C(NNC1=Nc2ccccc2SC1)c1ccc(Cl)cc1,22%,7.5%,3.9,-17,7,-22,-3
Cc1c(C(=O)N(C)Cc2cccc(F)c2)oc2c(Cl)cccc12,1%,0.9%,-1.2,10,17,3,11
Cc1ccc(C)c2[nH]c(=O)c(CCNS(=O)(=O)c3ccccc3)cc12,3%,1.1%,-2.5,u,1,-1,3
CCOc1ccc(CCNC(=O)c2ccc(CS(=O)Cc3ccc(Cl)cc3)o2)cc1OCC (stereo unspecified),7%,1.2%,3.4,-3,-4,5,-3
Nc1ncnc(Nc2ccc(S(N)(=O)=O)cc2)n1,14%,0.8%,2.5,0,x,-1,-1
CN1CCN(c2ccccc2NC(=O)c2ccc(-c3cccc(Cl)c3)o2)CC1,-26%,-0.1%,-3.5,-16,-10,-31,-14
N#C/C(=C\c1c(N2CCCCCC2)nc2ccccn2c1=O)C(=O)NC1CCS(=O)(=O)C1 (stereo unspecified),25%,2.3%,-0.2,-4,3,-19,-4

# Reprinted from the results shown for reference:
SMILES,Sfp inh,PINK1 modulator,D2 ag,TRPV1 PAM,CtBP-E1A inh,D2 potentiator,Six1-Eya2 blk
Cc1csc(NC(=O)CSc2nc3ccccc3s2)n1,-4%,-0.1%,-0.9,11,-1,-10,-4
Cc1ccc(NC(=S)NCc2ccccc2)c(C)c1,14%,0.7%,-6.4,-20,-1,-21,-12

# The results go on:
SMILES,Sfp inh,PINK1 modulator,D2 ag,TRPV1 PAM,CtBP-E1A inh,D2 potentiator,Six1-Eya2 blk
C[C@@H]1CC2=C(C(=O)OC(C)(C)O2)[C@@H](C2CC2)O1,x,1.2%,x,x,5,x,-5
Cc1ccc(NC(=O)CCn2nnc3ccccc32)c(C)c1,14%,-1.8%,-2.8,7,-17,-3,0
O=C(CC1CCCC1)Nc1ccc(Cl)c(S(=O)(=O)N2CCOCC2)c1,x,0.7%,0.9,x,-13,5,22
CC(=O)Nc1ccc(Nc2nc(-c3c(C)nc4ccccn34)cs2)cc1,x,-1.8%,12,x,x,-4,-5
CCC(C)NC(=O)c1ccc(COc2ccccc2Cl)cc1 (stereo unspecified),11%,0.1%,-0.4,12,5,-8,5
CN1CCN(C(=O)C2=C[C@H](c3csc4ccccc34)C[C@H](OCc3ccc(CO)cc3)O2)CC1,3%,-0.1%,0.7,9,-6,-10,-2
CN(c1ccccc1)S(=O)(=O)c1cccc(C(=O)OCC(=O)NCCCN2CCCC2=O)c1,6%,1.5%,1.3,2,-4,-1,-7
c1ccc2sc(SCc3ccc(-c4nnco4)cc3)nc2c1,-13%,-2.6%,0.4,13,9,21,2
Cc1ccc2cc(C)c3nnc(SCC(=O)N4CCN(C(=O)c5ccco5)CC4)n3c2c1,14%,x,-0.3,9,11,-2,-21
COC(=O)c1cc(C)sc1NC(=O)CN1CCN(C(=O)C2CCCO2)CC1 (stereo unspecified),-6%,0.8%,-3.5,-9,11,15,-7
COc1cc(/C=N/NC(=O)c2ccc(O)cc2)ccc1OCC(=O)N1CC(C)OC(C)C1 (stereo unspecified),22%,12%,-1.1,-6,-25,0,-16
CCc1ccc(NC(=O)Cn2cnc3sc(C)c(S(=O)(=O)N4CCOCC4)c3c2=O)cc1,22%,5.8%,8.7,11,-1,-3,2
Cc1ccc(S(=O)(=O)N2CCC[C@H]2C(=O)OCc2cc(=O)oc3cc(C)ccc23)cc1,x,2.5%,3.7,x,-1,4,2
CC[C@]12C(=O)N(C)C[C@H]([C@@H]3C(=O)N(C)C(=O)[C@@H]31)N2C(=O)c1ccc(C)cc1,x,-1.0%,-1.0,x,6,-4,5
OC[C@@H]1CN(C2CCCC2)C[C@H](n2cnc3c(N4CCCC4)ncnc32)O1,x,0.1%,5.0,x,6,0,3
CC(C)(C)OC(=O)NCCCCCc1nnc(SCc2ccccc2F)o1,-7%,1.0%,u,-1,5,-12,17
CCc1cc2c(=O)[nH]c(Cc3ccc(OC)cc3)nc2s1,-9%,-0.8%,1.5,5,2,-10,6

# Screening data from PubChem BioAssay.
